Rango-impB inh = Rango-importin beta binding inhibition. Q14974. actives 0.031% (n = 340,000). Rango CFP/YFP FRET sensor + importin beta, 45 min. Potency, µM (titrated, usually from 92.2 µM), for inactives: top-dose inhibition of complex formation; active = rising FRET ratio curve, often small or poorly fitted; inconclusive = mostly compound fluorescence or quenching in the first reads; inactive = flat curves in all reads;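 also: potency is read from the fitted curve at half-maximal effect; 0% = DMSO wells and 100% = buffer wells lacking importin beta; nearly all actives have a fitted effect of over 15% in size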
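Inhibition scored from the CFP 486 nm/YFP 530 nm FRET ratio 45 min after adding 0.125 microM importin beta to 50 nM Rango biosensor preincubated 5 min with compound (room temperature, PBS with DTT, Tween-20, BSA). No-importin wells as positive control.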
miR-21 reporter = miR-21 reporter, rising signal | Potency, µM (doses to about 38.3 µM), inactives show at the highest dose reporter change, positive = more light | AID 2288 | HeLa miR-21 FLuc reporter, luciferase, 48 h | 340,000 tested, under 10 active; active = well fitted rising curve with a large enough effect; inconclusive = small, poorly fitted or top-dose-only effect; inactive = no such curve, though single readings can be large or run the other way;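 also: % of control where 0% means no effect; miR-21 action dims this reporter so a rising signal means less miR-21 action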
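Compounds were titrated across several concentrations (up to approximately 40 uM) and incubated 48 hours with HeLa miR-21-FLuc reporter cells (miR-21 target sequence downstream of FLuc, endogenous miR-21). Readout was firefly luciferase luminescence after lytic detection reagent.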
Rango release inh = inhibitors of RanGTP-induced Rango-importin beta complex dissociation; Potency, µM (highest dose often 46.1 µM), without a hit: at the top dose activity change, negative = inhibition; Biochemical FRET Rango-importin beta, RanGTP-induced dissociation; O95149+P62826; actives 0.071% (n = 340,000); active means falling FRET ratio curve, often poorly fitted, with flat reads before Ran was added; inconclusive means other falling curves, or compound fluorescence or quenching; inactive means flat or rising ratio curve;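 also: potency is read from the fitted curve at half-maximal effect; % of control where 0% means no effect; nearly all actives have a fitted effect of over 45% in size; -100% = wells without RanGTP and RCC1; the record marks most hits as doubtful in a second field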
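Compounds sat 5 min at room temperature with 0.1 uM Rango biosensor plus 0.25 uM importin beta, then FRET pre-read. RanGTP-RCC1 (0.6 uM Ran, 2mM GTP, 0.2 uM RCC1) added for 45 min, and the CFP/YFP post-read measured blocked complex dissociation.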
GLA inh pH 4.5 = blocks human alpha-galactosidase A at pH 4.5; P06280; purified enzyme, 4-MU-alpha-Gal fluorescence, pH 4.5; activity change, negative = inhibition, % at 105 µM; 230,000 tested, under 10 active; inconclusive = small, poorly fitted or top-dose-only inhibition, or a rising curve; inactive = flat fitted curve, though single readings scatter; no compound was filed as active;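 also: 0% = full activity with enzyme and -100% = basal without enzyme; dose as in the result columns while the protocol names 77 µM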
Target sequence (P06280 whole entry, looked up): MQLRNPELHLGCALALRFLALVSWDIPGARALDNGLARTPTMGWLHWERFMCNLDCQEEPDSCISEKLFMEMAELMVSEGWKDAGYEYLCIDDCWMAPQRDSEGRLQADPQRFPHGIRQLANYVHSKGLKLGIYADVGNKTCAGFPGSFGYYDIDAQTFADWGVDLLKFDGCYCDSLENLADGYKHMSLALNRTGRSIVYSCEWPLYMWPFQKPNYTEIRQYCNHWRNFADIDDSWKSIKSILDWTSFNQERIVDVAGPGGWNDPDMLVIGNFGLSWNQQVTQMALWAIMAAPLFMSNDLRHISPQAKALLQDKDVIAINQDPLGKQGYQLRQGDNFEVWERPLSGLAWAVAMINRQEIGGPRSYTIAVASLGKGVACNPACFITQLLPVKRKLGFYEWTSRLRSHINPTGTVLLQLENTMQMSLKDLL
* hit, by the source's call; u = inconclusive; x = not tested or not shown; & = joins results of further samples. These rows are one share of the data. The share of hits here may be higher or lower than overall.

Rango-impB inh | miR-21 reporter | Rango release inh | GLA inh pH 4.5 | Compound
2.1% | 0% | -12% | -4 | CCOC(=O)c1c(/N=C/c2cccc([N+](=O)[O-])c2O)sc(C)c1C
0.7% | -16% | 2% | x | O=C(Cc1ccsc1)NNC(=O)c1cccc(Cl)c1
-1.9% | -52% | 0% | x | Cc1ccc2c(c1)C(=O)CC(c1ccc3c(c1)OCCO3)O2 (configuration not stated)
0.5% | 0% | 9% | 8 | CC(C)(C)n1nnnc1CN1CCN2CCCC2C1 (configuration not stated)
-0.3% | -17% | 27% | x | CC(C)c1nc2cc(C(=O)N(C)C3CCOCC3)ccc2o1
-0.5% | -28% | 0% | 8 | CN(Cc1cccc2cnccc12)C(=O)CCc1nnc(CCc2ccccc2)o1
-1.0% | 2% | -6% | -1 | O=C1C2=C(CCCC2)C(=O)N1CNc1ccccc1
-2.8% | x | 29% | x | O=c1[nH]c(-c2ccccc2)nc(-c2ccccc2)c1Cl
0.2% | 0% | -6% | 14 | CCOc1ccc(NC(=O)N2CCCC2C(=O)NCC2CCCO2)cc1 (configuration not stated)
4.4% | -16% | 0% | -4 | O=C(CSc1nccn1-c1ccccc1)N1CCc2ccccc21
0.3% | x | 7% | x | CCCCN1C(=O)C(=O)N(CC(=O)c2cc(C)n(C3CC3)c2C)C1=O
6.8% | -2% | -5% | 2 | Cn1nc(-c2ccccc2)cc1NC(=O)c1cccs1
1.2% | -11% | 20% | -7 | COc1ccc(OCC(=O)Nc2ccc(C)cc2)cc1
u | 0% | u | -7 | O=C(NC1CCCCC1)c1cnn2c(C(F)(F)F)cc(-c3ccco3)nc12
0.0% | 9% | 27% | 6 | COCCNc1nnc(SCC(=O)NNC(=O)c2ccccc2)s1
-0.9% | x | -8% | x | COc1ccc(-c2noc(Cn3cc(S(=O)(=O)N4CCCC4)ccc3=O)n2)cc1
-2.9% | -11% | 1% | 2 | Cc1ccc(-n2c(=O)[nH]c3c(C(N)=O)nc(-c4ccc(C)o4)nc32)cc1
0.1% | -1% | 2% | 3 | Cc1cc(N2CCN(S(=O)(=O)c3ccc(Br)cc3)CC2)n2ncnc2n1
-3.3% | -1% | -19% | -12 | CCOC(=O)n1c(=O)n(Cc2ccc(F)cc2)c2ccccc21
u | 0% | 12% | x | Cc1ccc(-c2c(C(=O)N/N=C/c3sccc3C)nnn2-c2nonc2N)cc1
3.6% | 0% | -1% | -5&3 | COC(=O)CCCCCN1C(=O)NC(c2ccc(-c3ccccc3)cc2)C(C(=O)OCc2ccccc2)=C1C (configuration not stated)
-3.4% | -5% | 1% | 4 | CN(C)S(=O)(=O)c1c(Cl)cccc1Cl
u | -40% | 6% | x | Cc1cc(NC(=O)c2nn(C)c(C)c2Br)no1
0.9% | 0% | 0% | 3 | CNCCCOc1cc(C)cc(C)c1C
-1.5% | 0% | 14% | 4 | Nc1o[nH]c(=O)c1Cc1ccccc1
6.5% | -24% | 0% | x | O=C(Nc1nccs1)c1ccc2ccccc2c1
2.7% | -20% | 14% | 3 | Cc1csc(NC(=O)CN2C(=O)c3ccccc3C2=O)c1C(N)=O
x | -1% | x | -3&-1&-3&3 | COc1cc(CNC(=O)CCCC/C=C\C(C)C)ccc1O
-0.5% | u | -1% | x | CC1=CC(=O)C(C(C)C)=C/C1=C(\c1cc(C(C)C)c(OP(=O)(O)O)cc1C)c1ccccc1C(=O)O
5.3% | -4% | -6% | 2 | CC1CCN(c2nc3c(c(=O)n(C)c(=O)n3C)n2CCSc2ncccn2)CC1
2.8% | -3% | 8% | -8 | Cc1nnc(SCCn2c(N3CCCC(C)C3)nc3c2c(=O)[nH]c(=O)n3C)s1 (configuration not stated)
0.1% | -5% | -7% | -6 | CCOc1ccc(OCC)c(NC(=O)CN2CCN(c3cccc(C)c3C)CC2)c1
0.6% | -12% | 1% | 4 | COc1ccc(N(CCCN2C(=O)c3cccc4cccc(c34)C2=O)C(=O)c2cccnc2)cc1
0.1% | -1% | -10% | x | O=C(CN(C(=O)c1csnn1)c1ccccc1F)NCc1ccc2c(c1)OCO2
-0.4% | 30% | -2% | 0 | CCCCOP(=O)(OCCCC)C1(NS(=O)(=O)c2ccccc2)C=CC(=O)c2ccccc21 (configuration not stated)
-1.0% | x | 7% | x | CC1(c2nnc(-c3cccc(Cl)c3)o2)CC(c2cccc(F)c2)=NO1 (configuration not stated)
5.1% | 2% | 19% | -6 | COc1ccc([N+](=O)[O-])cc1NC(=O)c1cn(-c2ccc(C)c(C)c2)c(=O)c2ccccc12
1.1% | -8% | 11% | -1 | O=C(Nc1nnc(Cc2ccc(Cl)cc2)s1)c1ccco1
-3.4% | -55% | 11% | x | COc1ccccc1C(=O)Nc1ccc2c(C)cc(=O)oc2c1
-3.2% | 5% | 13% | 1 | O=C(NC1CC1)c1cc2c(s1)CS(=O)(=O)C2
-0.7% | -10%&-1% | -8% | 4 | COc1ccc(OC)c(NC(=O)CCNC(=O)Cn2cnc3ccccc3c2=O)c1
0.8% | -24% | -2% | -12 | CCOc1c(S(=O)(=O)N2CCCC2)ccc(Cl)c1Cl
0.0% | -10% | 6% | -8 | O=C(Nc1nccs1)c1ccc(Cl)cc1[N+](=O)[O-]
-1.4% | -22% | 9% | -4 | Cc1cc(C(F)F)n2ncc(C(=O)N3CCc4ccccc4C3)c2n1
2.4% | 1% | 17% | -3 | CSc1n[nH]c(NC2=CC(=O)CCC2)n1
u | -5% | -4% | -6 | Cc1ccc(S(=O)(=O)CCc2ccccn2)cc1
-2.1% | 1% | 2% | -5 | CC(=O)N1c2c(cc(Br)cc2S(=O)(=O)NCc2ccc3c(c2)OCO3)CC1C (configuration not stated)
1.2% | 3% | -3% | x | COc1ccccc1N1CCN(C(=O)c2noc(C)c2[N+](=O)[O-])CC1
-0.5% | -38% | -2% | x | Nc1nc(-c2ccc(Oc3ccccc3)cc2)cs1
-3.7% | x | 24% | x | C[C@H](CO)N1C[C@H](C)[C@@H](CN(C)Cc2ccncc2)Oc2c(NC(=O)C3CCCCC3)cccc2C1=O
-3.7% | -5% | u | 4 | FC(F)(F)c1cc(-c2ccco2)nc(NCc2ccco2)n1
-2.6% | -4% | -3% | -8 | COc1cccc(-c2nnc(SCCC(=O)O)n2C)c1
1.8% | -3% | -8% | -1 | O=C(NCCc1ccccc1)C1CCCN(S(=O)(=O)c2cccc3nonc23)C1 (configuration not stated)
1.1% | -11% | 7% | x | COc1ccc(-c2nnc(SCC(=O)NCC3CCCO3)o2)cc1 (configuration not stated)
1.0% | 3% | -7% | 4 | CC1CCCC(C)N1NC(=O)c1cccc(S(=O)(=O)N2CCc3ccccc32)c1 (configuration not stated)
-2.4% | -1% | 7% | 5 | O=C(Oc1ccccc1N1C(=O)C2CCCCC2C1=O)c1ccccc1 (configuration not stated)
-6.9% | x | -10% | x | Cc1ccc(OCCCC(=O)Nc2ccc(S(=O)(=O)N3CCOCC3)cc2)cc1
-0.6% | -11% | -9% | -12 | Cc1ccc(-n2ncc3c(NCCCN4CCCC4=O)ncnc32)c(C)c1
u | -2% | -25% | 3 | Cn1cnnc1SCC(=O)Nc1sc2c(c1C(N)=O)CCC2
3.0% | -6% | 3% | x | COCC(=O)N1CCC(Oc2ccc(C(=O)NC3CCOC(C)(C)C3)cc2)CC1 (configuration not stated)

Of the compounds above, 10 contain an aryl methoxy group.
Rango-impB inh | miR-21 reporter | Rango release inh | GLA inh pH 4.5 | Compound
1.2% | -11% | 20% | -7 | COc1ccc(OCC(=O)Nc2ccc(C)cc2)cc1
-0.9% | x | -8% | x | COc1ccc(-c2noc(Cn3cc(S(=O)(=O)N4CCCC4)ccc3=O)n2)cc1
x | -1% | x | -3&-1&-3&3 | COc1cc(CNC(=O)CCCC/C=C\C(C)C)ccc1O
0.6% | -12% | 1% | 4 | COc1ccc(N(CCCN2C(=O)c3cccc4cccc(c34)C2=O)C(=O)c2cccnc2)cc1
5.1% | 2% | 19% | -6 | COc1ccc([N+](=O)[O-])cc1NC(=O)c1cn(-c2ccc(C)c(C)c2)c(=O)c2ccccc12
-3.4% | -55% | 11% | x | COc1ccccc1C(=O)Nc1ccc2c(C)cc(=O)oc2c1
-0.7% | -10%&-1% | -8% | 4 | COc1ccc(OC)c(NC(=O)CCNC(=O)Cn2cnc3ccccc3c2=O)c1
1.2% | 3% | -3% | x | COc1ccccc1N1CCN(C(=O)c2noc(C)c2[N+](=O)[O-])CC1
-2.6% | -4% | -3% | -8 | COc1cccc(-c2nnc(SCCC(=O)O)n2C)c1
1.1% | -11% | 7% | x | COc1ccc(-c2nnc(SCC(=O)NCC3CCCO3)o2)cc1 (configuration not stated)

Continuation:
Rango-impB inh | miR-21 reporter | Rango release inh | GLA inh pH 4.5 | Compound
-0.9% | 2% | -4% | x | O=C(c1ccccc1NS(=O)(=O)c1cccc([N+](=O)[O-])c1)N1CCCC1
4.9% | x | -13% | x | CCN(C[C@H]1N[C@@](CC)(C(=O)OC)[C@H]2C(=O)N(Cc3ccccc3)C(=O)[C@@H]12)C(C)=O
-2.3% | -2% | -3% | -4 | Cn1c(SCCOc2ccccc2Cl)nnc1-c1ccncc1
0.8% | -5% | 9% | -5 | CNc1nc(SCC(=O)OC)nc(N2CCOCC2)n1
1.7% | 5% | 7% | x | C=CCNC(=S)N1CCc2c([nH]c3ccccc23)C1C (configuration not stated)
-1.6% | 0% | 4% | -4 | CC(C)CNS(=O)(=O)c1ccc(S(=O)(=O)N2CCCN(Cc3ccccc3)C2)cc1
u | -25% | u | 14 | C/C(=N\Nc1ccc([N+](=O)[O-])cc1)c1ccc(N)cc1
2.1% | -44% | 3% | 0 | COCc1cc(=O)n2[nH]c(-c3cccc(Br)c3)cc2n1
5.9% | -1% | u | 7 | COC(=O)N/N=C(\C)c1ccc(OC(F)F)cc1OC(F)F
1.8% | x | 6% | 2 | CCOC(=O)C1C(C(=O)OC)=C(C(=O)OC)c2ccccc2N1S(=O)(=O)C(F)(F)F (configuration not stated)
u | -2% | -12% | x | COc1ccc(-n2ncc3c2CC(C)(C)CC3NC(=O)c2ocnc2C)cc1 (configuration not stated)
-4.2% | x | -5% | x | Cc1ccc(NC(=O)CCc2nc3sc4c(c3c(=O)[nH]2)CCCC4)c(Br)c1
-0.2% | -24% | -6% | 9 | COCc1nnc(NC(=O)CCSc2ccccc2)s1
5.1% | 1% | -4% | -5 | CC(=O)N1CCc2ccccc2C1CC(=O)O (configuration not stated)
-1.8% | x | 7% | x | C=C1[C@H]2O[C@H]2[C@@H](OC(C)=O)[C@@]2(C)[C@@H](OC(C)=O)C[C@@H](OC(C)=O)[C@@](C)(O)[C@@H]2[C@@H](OC(C)=O)[C@@]2(O)[C@@H](C)C(=O)O[C@H]2[C@H]1Cl
-3.4% | -9% | 10% | x | O=C(Cc1ccc(O)cc1)N/N=C/c1cccs1
0.9% | 6% | 7% | 3 | Cc1nc2ccc(S(=O)(=O)Nc3cccc(-c4nc5cccnc5s4)c3C)cc2s1
1.2% | x | -1% | x | O=S(=O)(SC1=NCCN1)c1ccccc1
0.1% | 0% | 0% | -2 | CCOc1ccc(NC(=O)N2CCC(n3c(=O)[nH]c4ccccc43)CC2)cc1
-0.1% | -1% | -9% | x | COc1cc(C(=O)NCCC(=O)N2CCC3(CC2)NCCc2[nH]cnc23)cc(OC)c1OC
-6.7% | 8% | 15% | x | CC1CCC(NC(=O)Cn2c(=O)oc3cc(S(=O)(=O)N4CCCC4)ccc32)CC1 (configuration not stated)
-0.3% | x | -2% | x | Nc1ncnc2c1ncn2[C@@H]1O[C@H](CNS(=O)(=O)c2ccc3c(c2)CCN(C(=O)C(F)(F)F)C3)[C@@H](O)[C@H]1O
x | -10% | x | 3 | C[n+]1nc(Nc2ccccc2)sc1-c1ccc(C(=O)O)cc1
1.0% | 1% | 10% | 3 | COc1ccc(CC(=O)N2CCN=C2SC)cc1OC
3.4% | -44% | 10% | -3 | CS/C(N)=N/N=C/c1cc(C)ccc1O
-0.7% | -9% | -14% | 7 | Cn1c(SCC(=O)c2ccc(F)cc2)nnc1-c1cnccn1
-0.4% | -1% | 17% | -16 | CN1CCN(CCNC(=O)c2cc3c(=O)n(C)c4ccccc4c3n2C)CC1
-0.4% | 3% | 0% | -10 | Fc1nc(N2CCCC2)c(F)c(Oc2ccccc2Oc2c(F)c(F)nc(N3CCCC3)c2F)c1F

Bioassay records (PubChem BioAssay)
